# Source: PubChem (National Center for Advancing Translational Sciences (NCATS))
# Caspase-1 inhib – blocks human caspase-1 allosterically or competitively; Caspase-1 enzyme, Ac-WEHD-AFC fluorogenic rate; Potency, µM (doses to about 57.5 µM), without a hit: top-dose activity change, negative = inhibition, usual class: inhibitors; 75,000 tested, 0.03% active; P29466;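 also: potency is read from the fitted curve at half-maximal effect; plate controls were vehicle for no effect and no substrate for full effect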
# 4-MU autofl – compound fluoresces in the 4-MU spectral region; compound autofluorescence, 340/450 nm, 4-MU equivalents; stronger effect = higher value; max dye-equivalent concentration, M; 59,000 tested, 11% active; AID 589; in the data active = max dye-equivalent concentration above about 10 nM; inconclusive = mostly about 1.1 nM to 9.6 nM
#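 Intrinsic fluorescence at 340/450 nm (ex/em) was read after 15 min at room temperature in pH 8.0, 100 mM Tris. Each compound concentration expressed as 4-MU-equivalent concentration from a six-point 4-MU standard series on each plate.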
# USP2a inhib – inhibitors of human ubiquitin-specific protease USP2a | AID 927 | O75604 | Potency, µM (series often up to 38.3 µM), without a hit: at the top dose activity change, negative = inhibition, most hits filed as inhibitors | USP2a enzymatic assay, qHTS inhibition | 60,000 tested, 0.1% active;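 also: potency is read from the fitted curve at half-maximal effect; nearly all actives have a fitted effect of over 60% in size; plate controls were DMSO for no effect and NEM full inhibition control for full effect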
#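 Inhibition is measured in a cell-free coupled assay with 20 nM USP2 core, 20 nM Ub-PLA2 and 20 uM NBD C6-HPC, 2.5 h incubation. Activity normalized to NEM control.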
# BRCT inh red – disrupts BRCA1 BRCT binding to phosphoprotein, red fluorophore readout; P38398; BRCT-phosphopeptide binding, red fluorescence polarization; Potency, µM (series often up to 76.9 µM), for the others: top-dose activity change, negative = inhibition, most hits filed as inhibitors; 75,000 tested, 0.03% active; AID 892; also: % is scaled to controls: 0 for no effect and ±100 for the full control effect
#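 Fluorescence polarization: 100 nM His-tagged BRCA1 BRCT with 100 nM TAMRA-labelled phospho-BACH1 decapeptide, phosphate buffer pH 7.3 with 150 mM NaCl, DTT, 0.01% Tween 20; 12 min RT. Binding inhibition seen as FP decrease.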
# Fluorescein autfl – fluorescein region autofluorescence; 59,000 tested, 0.91% active; max fluorescein-equivalent concentration, M; Compound autofluorescence, 480/540 nm, fluorescein-equivalent; stronger effect = higher value; in the data active = max fluorescein-equivalent concentration above about 10 nM; inconclusive = between about 1.1 nM and that limit
#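 Each compound is tested across a concentration series in 100 mM Tris buffer at pH 8.0. After 15 min at room temperature, plates are imaged with 480 nm excitation and 540 nm emission filters, and intensities are converted to fluorescein-equivalent values.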
# BRCT inh green – BRCA1 BRCT-phosphoprotein interaction inhibition; P38398; BRCA1 BRCT-phosphopeptide binding, green fluorescence polarization; Potency, µM (highest dose often 76.9 µM), for inactives: at the highest dose activity change, negative = inhibition, actives largely listed as inhibitors; 75,000 tested, 0.05% active;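 also: potency is read from the fitted curve at half-maximal effect; plate controls were peptide without protein for full effect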
#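 Fluorescence polarization: His-tagged BRCT (~35 kDa BRCA1 C-terminus, 250 nM) bound to 100 nM fluorescein-labeled phosphorylated 10-aa BACH1 peptide, pH 7.3 phosphate buffer with DTT and Tween 20. Compounds incubated 12 min at room temperature; inhibition read as lowered polarization.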
# Rhodamine autofl – compound fluoresces in the rhodamine spectral region | Rhodamine-region fluorescence, 547/598 nm, Tris buffer; stronger effect = higher value | max dye-equivalent concentration, M | 59,000 tested, 0.05% active; in the data active = max dye-equivalent concentration above about 11 nM; inconclusive = between about 1.1 nM and that limit
#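 Intensities are converted to rhodamine-equivalent concentration using a six-point rhodamine standard on each plate. Compounds sit 15 min at room temperature in 100 mM Tris buffer, pH 8.0; read uses the 547/598 nm excitation/emission pair.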
# Caspase-7 inhib – blocks human caspase-7 allosterically or competitively. P55210. recombinant caspase-7, Ac-DEVD-AFC fluorescence rate. Potency, µM (titrated, usually from 57.5 µM), without a hit: top-dose activity change, negative = inhibition, most hits filed as inhibitors. 75,000 tested, 0.02% active. AID 889; active = well fitted inhibition curve with a large enough effect in the main read-out, with a control signal flat, not every such curve was filed as active; inconclusive = small, poorly fitted or top-dose-only effect, or a change in a side signal; also: potency is read from the fitted curve at half-maximal effect; % of control where 0% means no effect
# TexasRed autofl – compounds fluorescent in Texas Red spectral region. Compound fluorescence, Texas Red channel, 547/618 nm; stronger effect = higher value. max dye-equivalent concentration, M. 59,000 tested, 0.06% active. AID 587; in the data active = max dye-equivalent concentration above about 10 nM; inconclusive = between about 1.1 nM and that limit
#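 Pin-transferred compounds and Texas Red standards go into 100 mM Tris buffer, pH 8.0. After 15 min at room temperature, plates are imaged with 547/618 nm filters. Each value is a dye-equivalent concentration derived from the per-plate dye curve.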
# A350 fluor – A350 region autofluorescence | Compound autofluorescence, 340/450 nm, Alexa 350 dye-equivalents; stronger effect = higher value | max dye-equivalent concentration, M | 59,000 tested, 11% active; in the data active = max dye-equivalent concentration above about 10 nM; inconclusive = mostly about 1.1 nM to 9.6 nM
# Starred values were filed as active, the others as inactive; i = inactive; ? = inconclusive; · = no result given; & = joins results of further samples; [ ] = another dose, or the depositor's remark. Unless noted, calls follow the shape of the dose curve; as a rule, active = well fitted curve in the direction sought with a large enough effect; inconclusive = small, poorly fitted or top-dose-only effect, or another doubt; inactive = no such curve, though single readings can be large; an effect the other way counts as inactive or inconclusive. Only part of the results is shown; the hit share may differ from the screen's.
SMILES,Caspase-1 inhib,4-MU autofl,USP2a inhib,BRCT inh red,Fluorescein autfl,BRCT inh green,Rhodamine autofl,Caspase-7 inhib,TexasRed autofl,A350 fluor
CC(C)NC[C@@H](O)COc1ccc(CCOCC2CC2)cc1,-2%,i,3%[17.1 µM],-2.8%,i,0.9%,i,1%,i,i
Clc1cc(Cl)c(Cl)cc1Cl,-3%,·,·,0.0%,·,-0.9%,·,1%,·,·
FC(F)(F)c1ccccc1Cl,-2%,·,·,-0.3%,·,-1.5%,·,2%,·,·
CC(C)Cc1nnc(NC(=O)c2ccncc2)s1,4%,i,1%,1.3%,?,-2.4%,i,-1%,i,i
O=C(O[C@@H](C(=O)O)[C@@H](OC(=O)c1ccccc1)C(=O)O)c1ccccc1,-1%,·,·,1.3%,·,0.1%,·,0%,·,·
CCOC(=O)c1cnc2c(cnn2CC)c1NN=C(C)C,-1%&1%,3.2e-08M*,6%,-0.7%&-1.6%,?,2.7%&-1.7%,i,-4%&-1%,?,2e-08M*
CC(=O)N[C@@H](CC(C)C)C(=O)O,-3%[25.7 µM],i,-6%[17.1 µM],0.8%[34.4 µM],?,0.0%[34.4 µM],i,2%[25.7 µM],?,i
CCOC(=O)Cn1c(=N)n(Cc2ccccc2)c2ccccc21,3%,i,-2%,-4.1%,i,0.9%,i,1%,i,i
NC[C@H](O)c1ccc(O)c(O)c1,-3%&-1%,i,2%&-3%,0.9%&1.3%,?,-2.4%&-2.9%,i,4%&-2%,?,i
CCSc1nnc2c(n1)[nH]c1c(C)cccc12,-1%,·,13%,0.5%,·,-1.5%,·,1%,·,·
Cc1ccc(-c2[nH]n3c(=O)c4c(nc3c2C)CCCC4)cc1,-1%,i,74%[activator],0.7%,i,-0.5%,i,0%,i,i
COC(=O)c1c(-c2cc(OC)c(OC)c(OC)c2)c2ccc(OCc3ccccn3)cc2c(=O)n1-c1ccc(N)cc1,2%,i,18%,-4.9%,i,4.6%,i,0%,i,i
COC(=O)c1ccc(C=O)cc1,-2%,·,·,-0.8%,·,0.3%,·,3%,·,·
Cc1[nH]n2c(=O)c(C#N)c(-c3ccccc3)nc2c1-c1ccccc1,-2%,i,2%,-0.9%,?,-3.1%,i,-1%,?,?
O=C(CSc1nnc(-c2ccco2)n1Cc1ccccc1)NC(=O)NCc1ccccc1,-3%,i,18%,0.6%,?,-1.4%,i,-6%,?,i

# In a second layout: entries from further up
# Every second line gives: Caspase-1 inhib, 4-MU autofl, USP2a inhib, BRCT inh red, Fluorescein autfl, BRCT inh green, Rhodamine autofl, Caspase-7 inhib, TexasRed autofl, A350 fluor
- CC(C)Cc1nnc(NC(=O)c2ccncc2)s1
  4%, i, 1%, 1.3%, ?, -2.4%, i, -1%, i, i
- O=C(CSc1nnc(-c2ccco2)n1Cc1ccccc1)NC(=O)NCc1ccccc1
  -3%, i, 18%, 0.6%, ?, -1.4%, i, -6%, ?, i
- FC(F)(F)c1ccccc1Cl
  -2%, ·, ·, -0.3%, ·, -1.5%, ·, 2%, ·, ·

# (continued)
SMILES,Caspase-1 inhib,4-MU autofl,USP2a inhib,BRCT inh red,Fluorescein autfl,BRCT inh green,Rhodamine autofl,Caspase-7 inhib,TexasRed autofl,A350 fluor
COc1ccc(C(Cl)=C(c2ccc(OC)cc2)c2ccc(OC)cc2)cc1,-3%,i,10%,-1.6%,?,-2.5%[3.08 µM],i,-1%,i,i
O=C(NC1CCCC1)C(c1ccccc1F)N(C(=O)c1ccco1)C1CCCC1 (stereo unspecified),-4%,i,8%,-0.2%,i,-1.7%,i,0%,?,i
NS(=O)(=O)c1cc2c(cc1Cl)NC(CSCc1ccccc1)=NS2(=O)=O,1%,?,-13%,-0.2%,?,-0.6%[3.08 µM],i,-1%,i,?
CC(O)Cn1cnc2c1c(=O)n(C)c(=O)n2C (stereo unspecified),·,i,·,·,i,·,i,·,i,i
O=c1oc(-c2cccnc2)nc2ccccc12,1%,·,-2%,0.5%,·,1.0%,·,0%,·,·
c1c[nH]cn1,0%,·,·,-0.5%,·,-2.1%,·,1%,·,·
O=C(Nc1nc2ccccc2n1CCN1CCCC1)c1ccc(Cl)cc1,0%,·,8%,0.5%,·,-0.8%,·,-1%,·,·
CCN(CCCNC(=O)C1CCN(S(=O)(=O)c2c(C)[nH]c(=O)[nH]c2=O)CC1)c1cccc(C)c1,-2%,i,13%,0.7%,?,-2.0%,i,1%,i,i
CC1=CC(=O)c2ccccc2C1=O,0%,?,?,1.2%,?,0.0%[3.08 µM],i,0%,i,?
COc1ccc(N(CC(=O)N2CCN(C)CC2)S(=O)(=O)c2ccccc2)cc1OC,-14%,·,-5%,0.2%,·,0.0%,·,3%,·,·
C[C@H](O)Cn1cnc2c1c(=O)n(C)c(=O)n2C,0%[25.7 µM],?,4%[17.1 µM],-0.7%[34.4 µM],?,-3.7%[34.4 µM],i,0%[25.7 µM],i,?
O=C(OC[C@@H](O)CO)c1ccccc1Nc1ccnc2cc(Cl)ccc12,-1%[25.7 µM],?,47%[activator][17.1 µM],0.9%[34.4 µM],?,-1.1%[34.4 µM],i,-1%[25.7 µM],i,?
COc1ccc([C@@H]2CC(=O)c3c(O)cc(O)cc3O2)cc1O,0%,i,-4%[17.1 µM],0.2%,?,-2.3%,i,1%,i,i
CC(=O)c1ccc2c(c1)N(CCCN1CCC(CCO)CC1)c1ccccc1S2,-1%[25.7 µM],i,43%[activator][17.1 µM],-2.5%[34.4 µM],?,-1.6%[34.4 µM],i,2%[25.7 µM],i,i
CCC(C)=O,-2%,·,·,0.0%,·,-5.8%,·,-2%,·,·

# Brought forward from above: six entries, followed by the next part.
SMILES,Caspase-1 inhib,4-MU autofl,USP2a inhib,BRCT inh red,Fluorescein autfl,BRCT inh green,Rhodamine autofl,Caspase-7 inhib,TexasRed autofl,A350 fluor
COc1ccc(N(CC(=O)N2CCN(C)CC2)S(=O)(=O)c2ccccc2)cc1OC,-14%,·,-5%,0.2%,·,0.0%,·,3%,·,·
C[C@H](O)Cn1cnc2c1c(=O)n(C)c(=O)n2C,0%[25.7 µM],?,4%[17.1 µM],-0.7%[34.4 µM],?,-3.7%[34.4 µM],i,0%[25.7 µM],i,?
O=C(OC[C@@H](O)CO)c1ccccc1Nc1ccnc2cc(Cl)ccc12,-1%[25.7 µM],?,47%[activator][17.1 µM],0.9%[34.4 µM],?,-1.1%[34.4 µM],i,-1%[25.7 µM],i,?
COc1ccc([C@@H]2CC(=O)c3c(O)cc(O)cc3O2)cc1O,0%,i,-4%[17.1 µM],0.2%,?,-2.3%,i,1%,i,i
CC(=O)c1ccc2c(c1)N(CCCN1CCC(CCO)CC1)c1ccccc1S2,-1%[25.7 µM],i,43%[activator][17.1 µM],-2.5%[34.4 µM],?,-1.6%[34.4 µM],i,2%[25.7 µM],i,i
CCC(C)=O,-2%,·,·,0.0%,·,-5.8%,·,-2%,·,·
O=C1CCC(=O)O1,2%,·,·,0.4%,·,-3.1%,·,1%,·,·
C=CCOC(=O)CCCCCCCC,-3%,·,·,1.3%,·,-1.1%,·,0%,·,·
O=C(c1csnn1)N1CCC[C@@]2(CCN(C(c3ccccc3)c3ccccc3)C2)C1,-3%,i,81%[activator],-2.8%,i,-2.5%,i,-2%,i,i
C1=C(c2cccc3ccccc23)N2CCN=C2S1,0%,i,-7%,0.8%,i,2.6%,i,0%,i,i
CC(C)C(=O)c1c(C(C)C)nn2ccccc12,-1%,i,0%,-1.5%,?,-1.2%,i,3%,i,i
CCC(c1nnnn1C(C)(C)C)N1CCN(c2cc(Cl)ccc2C)CC1 (stereo unspecified),-2%,i,42%[activator],-1.0%,i,-1.7%,i,1%,?,i
Cc1ccc(CNC(=O)[C@@H]2C[C@H]2[C@@H](NP(=O)(c2ccccc2)c2ccccc2)c2ccccc2)o1,-5%,·,·,-0.8%,·,-0.4%,·,-2%,·,·
Cc1ccc(S(=O)(=O)OC[C@@H]2CN3[C@H](c4ccc(Br)cc4)[C@H](C)CC[C@H]3C(=O)O2)cc1,-1%[11.5 µM],·,·,-0.4%[15.4 µM],·,-2.2%[15.4 µM],·,0%[11.5 µM],·,·
NS(=O)(=O)O,-4%,·,·,-0.8%,·,-2.3%,·,-2%,·,·
Cc1ccc(CNC(=O)[C@H]2C[C@@H]2[C@H](NP(=O)(c2ccccc2)c2ccccc2)c2ccccc2)o1,-1%,·,·,-0.8%,·,-0.2%,·,-2%,·,·
CCN(CC)c1ccc(C=Nc2ccc(C#N)cc2)c(O)c1,-4%,·,?,-1.1%,·,-0.7%,·,-1%,·,·
CC[C@H](c1ccc(O)cc1)[C@@H](CC)c1ccc(O)cc1,-1%[25.7 µM],i,1%[17.1 µM],-0.3%[34.4 µM],?,-0.9%[34.4 µM],i,0%[25.7 µM],i,?
NC(=O)/N=N/C(N)=O,-2%,·,·,-0.3%,·,-1.3%,·,-2%,·,·
CC(=O)O[C@H]1C[C@@]2(C)[C@H](C[C@@H](O)[C@H]3[C@@]4(C)CC[C@@H](O)[C@@H](C)[C@H]4CC[C@@]32C)C1=C(CCC=C(C)C)C(=O)O,2%[25.7 µM],i,17%[17.1 µM],1.7%[34.4 µM],?,0.3%[34.4 µM],i,-2%[25.7 µM],i,i
O=C(NC1CCCCCCC1)c1ccc2c(c1)OCO2,-1%,i,0%,1.7%,?,-0.9%,i,0%,i,i
CCN(CC)CCNC(=O)c1ccc(NC(C)=O)cc1,3%&-1%,?,0%&11%,-2.2%&-1.1%,?,-2.5%[3.08 µM],i,-1%&0%,i,?
C[C@@H](C(=O)O)c1ccc(C(=O)c2ccccc2)s1,-2%[25.7 µM],i,-10%[17.1 µM],-0.1%[34.4 µM],?,-3.4%[34.4 µM],i,2%[25.7 µM],i,i
CCCC[C@H]1C(=O)N(c2ccccc2)N(c2ccc(O)cc2)C1=O,0%[25.7 µM],i,6%[17.1 µM],-0.6%[34.4 µM],?,-2.6%[34.4 µM],i,1%[25.7 µM],i,i
